KCNQ2 inh = KCNQ2 potassium channel inhibitors, primary screen, cell-based, CHO-K1, FluxOR thallium flux, B-score (AID 2156). B-score at 10 µM. 1.1% of 310,000 active. 20 min; hits give low values; only compounds with negative scores are shown here; some inactives read as strong as hits. Potassium voltage-gated channel subfamily KQT member 2 (Rattus norvegicus), O88943;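 active = fluorescence ratio B-score at most minus 3 library SDs, with starting brightness B-score within 2 library SDs, cut at about -5.5 in these data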
Target sequence (O88943 whole entry, looked up): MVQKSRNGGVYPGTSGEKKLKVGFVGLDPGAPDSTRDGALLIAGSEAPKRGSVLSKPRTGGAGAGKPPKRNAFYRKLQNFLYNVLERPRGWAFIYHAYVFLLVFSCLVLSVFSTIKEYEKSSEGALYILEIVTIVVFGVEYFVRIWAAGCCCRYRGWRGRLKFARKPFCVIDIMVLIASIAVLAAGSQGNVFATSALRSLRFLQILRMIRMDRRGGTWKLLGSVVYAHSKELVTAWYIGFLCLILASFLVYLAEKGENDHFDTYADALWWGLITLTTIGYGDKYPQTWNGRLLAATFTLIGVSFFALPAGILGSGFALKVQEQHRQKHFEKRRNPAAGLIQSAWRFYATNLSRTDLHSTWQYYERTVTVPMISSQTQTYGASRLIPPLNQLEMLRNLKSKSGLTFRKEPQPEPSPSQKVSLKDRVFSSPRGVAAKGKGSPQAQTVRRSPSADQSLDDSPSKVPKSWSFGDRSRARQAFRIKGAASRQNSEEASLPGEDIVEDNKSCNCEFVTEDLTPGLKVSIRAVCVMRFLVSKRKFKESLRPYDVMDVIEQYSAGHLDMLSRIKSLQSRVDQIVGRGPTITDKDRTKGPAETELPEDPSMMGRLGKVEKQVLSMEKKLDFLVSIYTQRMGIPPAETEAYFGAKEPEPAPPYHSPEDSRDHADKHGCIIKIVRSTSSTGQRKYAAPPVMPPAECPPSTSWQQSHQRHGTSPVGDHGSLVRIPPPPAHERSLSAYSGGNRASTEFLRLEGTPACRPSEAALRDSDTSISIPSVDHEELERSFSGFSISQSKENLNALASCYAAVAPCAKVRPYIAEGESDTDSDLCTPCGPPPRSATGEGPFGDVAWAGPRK
KCNQ2 inh baseline = second read-out of KCNQ2 inh, no call of its own (marks repeat the call); B-score; measured here: initial fluorescence intensity artifact check;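 brightness before thallium and not channel activity; 0 = typical well and far values either way flag optical interference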
* hit, by the source's call; i = inactive.

entry	SMILES	KCNQ2 inh	KCNQ2 inh baseline
1	COc1cccc(C(=O)NCC2(c3ccccc3)CCCC2)c1	i	0.43
2	COc1ccc(NS(=O)(=O)c2cccc3nonc23)c(OC)c1	i	-0.35
3	c1ccc(-n2nnc3cnccc32)cc1	i	5.2
4	N/C(=N\OC(=O)CCCOc1ccccc1)c1ccc([N+](=O)[O-])cc1	i	-0.15
5	Cc1ccc2nc(N(CCCN(C)C)C(=O)c3ccc(Br)s3)sc2c1	i	-1.4
6	COc1ccc(CNC(=O)CN(c2ccc(OC)cc2)S(=O)(=O)c2c(C)nn(C)c2C)cc1	i	1.7
7	CC(=O)COc1cc(C)cc2oc(=O)c(C)c(C)c12	i	0.72
8	Cc1ccc(OCc2nc(C#N)c(NCCCn3ccnc3)o2)cc1	i	5.1
9	COc1ccc(C(=O)NCC23C=CC(O2)C2C(=O)N(Cc4ccccc4)C(=O)C23)cc1 (configuration not stated)	i	0.16
10	O=S(=O)(Nc1cccc(-c2ccc(N3CCCCCC3)nn2)c1)c1ccccc1F	i	1.8
11	Cc1ccc(Nc2nc(C)cc(C)c2C(N)=O)c(C)c1	i	1.4
12	COCCN(Cc1nc(C(c2ccccc2)c2ccccc2)no1)C(C)C	i	0.18
13	CCn1c(SCC(=O)C(C)(C)C)nnc1-c1cnccn1	i	0.64
14	COc1ccc(/C=N/Nc2nc(Nc3ccccc3)nc(N3CCCCC3)n2)cc1OC	i	0.82
15	Cc1ccc(NC(=O)CSc2nc3ccccc3c(=O)n2CCCC(=O)NCCCN2CCOCC2)cc1	i	-0.21
16	CN(CCc1nc2ccccc2[nH]1)Cc1nc(CC2CC2)no1	i	0.86
17	O=C(N[C@@H](Cc1ccccc1)C(=O)OCc1ccccc1)c1nc[nH]c1C(=O)N1CCN(c2ccccc2)CC1	i	-1.1
18	Cc1ccccc1/C=N/NC(=O)Cn1cnc([N+](=O)[O-])n1	i	0.01
19	O=C1C2C3C=CC(C3)C2C(=O)N1Nc1ccc([N+](=O)[O-])cc1[N+](=O)[O-] (configuration not stated)	i	-0.86
20	COc1ccc(-c2cc(=O)oc3cc4occ(C)c4cc23)cc1	i	-1.6
21	CCOC(=O)c1c(C)sc(Sc2ccc(Cl)cc2[N+](=O)[O-])c1OC	i	0.15
22	Cc1cccn2cc(-c3cccc(S(=O)(=O)N4CC(C)OC(C)C4)c3)nc12 (configuration not stated)	i	-1.6
23	COc1ccc(C(=O)NCC(=O)NCC(c2ccco2)N(C)C)cc1OC (configuration not stated)	i	0.69
24	O=C(Nc1ccc(N2CCCC2)cc1)c1ccccc1F	i	0.08
25	O=C(CSc1nnnn1-c1ccc(O)cc1)c1ccc(F)cc1	i	0.86
26	FC(F)(F)c1ccc(Cl)c(-n2c(Cc3cccs3)n[nH]c2=S)c1	i	-1
27	CN(Cc1ccccc1Cl)C(=O)C1CCC(=O)N(C2CCCCCC2)C1 (configuration not stated)	i	-0.5
28	COc1ccc2c(c1)C(SCC(=O)NCCc1ccc(Cl)cc1)CC(C)(C)O2 (configuration not stated)	i	-1.4
29	Cc1[nH]c(=O)c(C#N)c(C)c1[N+](=O)[O-]	i	1.7
30	CCc1nnc(NS(=O)(=O)c2ccc(NC(=O)OC)cc2)s1	i	-0.19
31	O=C1CCCN1C(=O)COc1ccc([N+](=O)[O-])cc1	i	3.3
32	COc1cccc(C2CC(c3cccs3)=NN2C(=S)Nc2ccccc2)c1OC (configuration not stated)	i	-0.09
33	CCCc1cc(=O)n2nc(N3CCC(C(=O)NCc4ccc(C)o4)CC3)sc2n1	i	0.5
34	O=S(=O)(Nc1cccc(-c2cn3c(n2)SCC3)c1)c1ccccc1	i	-1.3
35	O=C1C=C(NCc2ccco2)CCC1	i	0.01
36	O=C(CN1N=C(c2ccc(Cl)cc2)CCC1=O)NCc1cccs1	i	1.4
37	COc1ccc(S(=O)(=O)N2CCCCCC2)cc1NC(=O)CC1OC(=O)c2ccccc21 (configuration not stated)	i	-2.1
38	CS(=O)(=O)N1CCN(c2ccccc2NC(=O)c2cc(Br)ccc2Cl)CC1	i	-2.8
39	COc1cc(NC(=O)c2ccc(Cl)cc2)c(OC)cc1NC(=O)CN1CCCCC1	i	-3.1
40	O=C(c1cc(COc2ccc(F)cc2Cl)on1)N1CCCCCCC1	i	0.47

By substructure: the entries above containing fluorine (5)
entry	SMILES	KCNQ2 inh	KCNQ2 inh baseline
10	O=S(=O)(Nc1cccc(-c2ccc(N3CCCCCC3)nn2)c1)c1ccccc1F	i	1.8
24	O=C(Nc1ccc(N2CCCC2)cc1)c1ccccc1F	i	0.08
25	O=C(CSc1nnnn1-c1ccc(O)cc1)c1ccc(F)cc1	i	0.86
26	FC(F)(F)c1ccc(Cl)c(-n2c(Cc3cccs3)n[nH]c2=S)c1	i	-1
40	O=C(c1cc(COc2ccc(F)cc2Cl)on1)N1CCCCCCC1	i	0.47

More results:
entry	SMILES	KCNQ2 inh	KCNQ2 inh baseline
41	CCOC(=O)N/N=C/c1ccc(OCCSc2ccc(Cl)cc2)c(OC)c1	i	-0.49
42	c1ccc2c(c1)CCCC2C1=NCCN1 (configuration not stated)	i	1.3
43	CCOCc1nnc(NC(=O)c2cccc(OC)c2)s1	i	-1
44	CCN(CCNC(=O)C1CCN(S(C)(=O)=O)CC1)c1ccccc1	i	-0.55
45	CSCC[C@H](NC(=O)OC(C)(C)C)C(=O)N1CCC(C(=O)NCC(=O)Nc2ccc(C)cc2)CC1	i	2.7
46	O=C(c1noc2c1CSc1ccccc1-2)N1CCN(c2ccc(Cl)cc2)CC1	-7*	1.1*
47	COCCNC(=O)C(=O)NNC(=O)c1ccccc1OC	i	9.2
48	Cc1ccccc1N1CCN(C(=O)c2ccc(Oc3ccc(C(F)(F)F)cn3)cc2)CC1	i	0.01
49	O=C(CCCN1C(=O)/C(=C/c2ccccc2Cl)SC1=S)NNC(=O)c1cccnc1	i	-0.43
50	COC(=O)Nc1nc(-c2ccc(F)cc2)c(C)s1	i	1
51	Cc1noc(C)c1C(=O)NC(C)c1ccc(Cl)cc1Cl (configuration not stated)	i	1
52	O=C(N/N=C/c1cccc([N+](=O)[O-])c1)c1cc(-c2ccccc2)nc2ccccc12	i	-3
53	COc1ccc(S(=O)(=O)NCc2ccc3c(c2)OCO3)cc1C(=O)O	i	0.39
54	CC(C)(C)OC(=O)NCCCC[C@H](NC(=O)c1nc[nH]c1C(=O)N1CCc2ccccc2C1)C(=O)OC(C)(C)C	i	0.73
55	CCOc1cc(/C=N/n2cnnc2)ccc1OS(=O)(=O)c1ccc(C)cc1	i	-0.02
56	CN1CCN(C(=O)c2ccc(CSc3nc4ccncc4n3Cc3ccc(F)cc3)cc2)CC1	i	0.33
57	C=CCNC(=O)c1ccccc1NC(=O)C1COc2ccccc2O1 (configuration not stated)	i	-0.53
58	CN(C)C(=O)c1ccc(-c2cc(C(F)(F)F)nn2C)s1	i	2.1
59	O=C(CC1C(=O)NCCN1CC1CCCCC1)NCc1ccccc1Cl (configuration not stated)	i	0.54
60	Cc1cccc2sc(NS(=O)(=O)c3ccccc3)nc12	i	1.4

4 compounds already listed, ordered by the value under KCNQ2 inh baseline, ascending:
| No. | compound | KCNQ2 inh baseline |
| --- | --- | --- |
| 44 | CCN(CCNC(=O)C1CCN(S(C)(=O)=O)CC1)c1ccccc1 | -0.55 |
| 18 | Cc1ccccc1/C=N/NC(=O)Cn1cnc([N+](=O)[O-])n1 | 0.01 |
| 42 | c1ccc2c(c1)CCCC2C1=NCCN1 (configuration not stated) | 1.3 |
| 3 | c1ccc(-n2nnc3cnccc32)cc1 | 5.2 |

Additional entries.
entry	SMILES	KCNQ2 inh	KCNQ2 inh baseline
61	CN1CCN(c2ccc(Cl)cc2NC(=O)c2ccc(S(=O)(=O)N3CCCCCC3)cc2)CC1	i	1.8
62	Cc1ccc(C)c(NC(=O)COC(=O)c2cccc3c2C(=O)c2ccccc2C3=O)c1	i	-0.03
63	CCOC(=O)C1=NNC2(CC(=O)N(c3cc(C)cc(C)c3)C2=O)C1 (configuration not stated)	i	-0.25
64	Cc1ccc(C(=O)N/C(=C/c2ccccc2)C(=O)NCC2CCCO2)cc1 (configuration not stated)	i	-1.7
65	S=C(Nc1cccc(Cl)c1)N1CCOCC1	i	-0.9
66	CC(C)CN1C(=O)c2ccc(NC(=O)c3ccccc3F)cc2C1=O	i	2.3
67	S=c1[nH]nc(Cc2noc3ccccc23)n1-c1ccccc1	i	0.62
68	COc1ccc(S(=O)(=O)NC(N)=NCCc2ccccc2OC)cc1	i	0.04
69	CCOC(=O)/C(C#N)=N\Nc1cc(Cl)ccc1OC	i	-0.02
70	NC(=O)c1cccn(Cc2ccc(C(F)(F)F)cc2)c1=O	i	-0.27
71	C=CCn1c(SCC(=O)Nc2ccccc2OC)nnc1-c1ccccn1	i	0.28
72	O=C(C1CC(=O)N(c2ccc(Cl)cc2)C1)N1CCN(Cc2ccc3c(c2)OCO3)CC1 (configuration not stated)	i	-1.7
73	CCOC(=O)c1sc(N2C(=O)C(O)=C(C(=O)c3ccco3)C2c2ccco2)nc1C (configuration not stated)	i	0.78
74	COc1cccc(-c2cc3nc(-c4ccccc4)cc(N4CCC5(CC4)OCCO5)n3n2)c1	-8.4*	0.14*
75	CC(O)(CS(=O)(=O)Cc1ccccc1)C(=O)Nc1ccc(C(F)(F)F)cc1 (configuration not stated)	i	1.5
76	CC(=O)C1=C(O)C(=O)N(CCCN2CCOCC2)C1c1ccccc1[N+](=O)[O-] (configuration not stated)	i	1.6
77	O=C(CN1CCCCC1)Nc1cccc(-n2cnnn2)c1	i	-0.29
78	OCC#Cc1cnc2ccccc2c1	i	1
79	C=CCn1c(C)cc(C(=O)COc2nncc3ccccc23)c1C	i	-1.3
80	Cc1cccc(Cc2nnc(CCC(=O)NCc3ccncc3C)o2)c1	i	0.25
81	CSc1nncc(=O)[nH]1	i	1.9
82	COc1ccccc1NC(=O)Cn1nnc(C(=O)NCCc2ccccc2)c1N	i	0.01
83	Cc1cccc(-n2ncc(Cl)c(Cl)c2=O)c1	i	-0.01
84	CC(C)(C)N1C(=O)c2ccccc2NC(=O)N1Cc1ccc(Br)cc1	i	0.85
85	N#C/C(=N\Nc1ccccc1F)c1nc(-c2ccccc2)cs1	i	0.71
86	CN(CCc1cn[nH]c1)C(=O)C1CCC(=O)N(CC2CCCCC2)C1 (configuration not stated)	i	2.4
87	Cc1ccccc1NC(=O)C1CCCN(S(=O)(=O)c2ccc(-n3cnnn3)cc2)C1 (configuration not stated)	i	-0.63
88	Cc1cc(C)c(C#N)c(Sc2ccccc2N)n1	i	0.02
89	COc1ccc(CCn2c(=O)[nH]c3cc(C(=O)NCCCN4CCOCC4)ccc3c2=O)cc1OC	i	-0.63
90	CC(C)=Nc1ccccc1C1COC(=O)C1=N (configuration not stated)	i	1.6
91	CN(Cc1ccccc1F)c1nc(-c2cccs2)nc2ccccc12	i	0.48
92	C/C(=N\NC(=O)c1c(Br)cnn1C)c1ccc(NC(=O)c2ccc(F)cc2)cc1	i	-0.88
93	O=C1C(Cl)=C(NCCN2CCCCC2)C(=O)c2ccccc21	-5.8*	-6*
94	COc1ccc(S(=O)(=O)N2CCN(Cc3ccco3)CC2)cc1	i	0.05
95	Cc1nc2nc(NCc3cccs3)nn2c(C)c1Cl	i	0.05
96	COc1ccc(OC)c(CNn2c(-c3ccccc3F)nc3ccccc3c2=O)c1	i	-1.1
97	O=C(c1ccc(Cl)c(S(=O)(=O)NCc2ccccc2)c1)N1CCN(c2ccccn2)CC1	-5.8*	-0.02*
98	Cc1ccc(S(=O)(=O)c2c(C)nn(C(C)(C)C)c2OC(=O)CC(C)C)cc1	-7.6*	-0.02*
99	COc1ccc(-n2cccc2/C=C2/NC(=O)N(c3cccc(Cl)c3)C2=O)cc1	i	0.23
100	COc1cc(F)ccc1S(=O)(=O)N1CCN(c2ccccc2)CC1	i	-0.89
101	S=C(Nc1ccc(Oc2ccccc2)cc1)N(CCCN1CCOCC1)Cc1ccccn1	i	0.3
102	Cc1csc(NC(=O)CSc2nnc(-c3ccccn3)n2-c2ccc(C)c(C)c2)n1	i	0.19
103	Cc1ccc2c(c1)c1c3n2CCN(C(=O)Cn2c(-c4ccccc4)noc2=O)C3CCC1 (configuration not stated)	i	-0.15
104	CCC(c1nnnn1CCOC)N1CCN(c2nc3ccccc3s2)CC1 (configuration not stated)	i	2.1
105	Cc1ccccc1NC(=O)C1C2CCCC1C2c1ccccc1 (configuration not stated)	i	3.7
106	CC(C)c1ccc(S(=O)(=O)N2CCN(C(=O)c3cccc(F)c3)CC2)cc1	i	0.67
107	ON1C2CCCCC2N(O)C1c1c(F)c(F)c(F)c(F)c1F (configuration not stated)	i	0.69
108	CCc1nnc(NS(=O)(=O)c2ccc(NC(=O)c3ccccc3O)cc2)s1	i	-0.02
109	Cc1ccccc1-c1nc(CS(=O)(=O)CC(=O)NCc2ccco2)c(C)o1	i	1.9
110	Cc1oc(-c2ccccc2F)nc1CS(=O)CC(=O)NCc1ccccc1 (configuration not stated)	i	-1.3
111	Cc1ccc(NC(=O)CCn2cccc2)cc1Cl	i	0.91
112	Cc1ccc(C23CC4CC(CC(C(=O)OCC(=O)N(C)C)(C4)C2)C3)cc1	i	2.1
113	Cc1ccc(N2C(=O)C(Cl)=C(NCc3ccccc3)C2=O)c(C)c1	i	0.1
114	CSCCC(NS(=O)(=O)c1ccc(C)cc1)C(=O)NCCc1c[nH]c2ccccc12 (configuration not stated)	i	0.2
115	COc1ccc(CNC(=S)N/N=C/c2ccc(O)c(OC)c2)cc1	i	1.1
116	Cc1cccc(NS(=O)(=O)c2cn(C)c(=O)n(C)c2=O)c1C	i	-1.1
117	CCc1ccccc1S(=O)(=O)Cc1ccc(C(=O)NCc2cccs2)o1	i	1.1
118	CCN(CCCNC(=O)CNC(=O)c1nn(-c2ccc(OC)c(OC)c2)c(=O)c2ccccc12)c1ccccc1	i	1.2

Bioassay records as filed in PubChem.

This is a subset (hit frequency here may not be typical).
